Compound activity from PubChem BioAssay.
TRPML1 blocker: inhibitors of human TRPML1 channel | activity change, negative = inhibition, % (test concentration not listed) | 390,000 tested, 0.02% active | Q9GZU1 | AID 624415 | TRPML1-inducible cells, Ca2+ dye fluorescence, FDSS; active compounds read low; inhibition of EC80 agonist-evoked calcium signal; in the data active means activity change below about -50%; inconclusive means about -30% to -50%; inactive means above about -30%;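 further: stimulus is agonist 54-4 at its EC80 concentration; on the % scale 0 is the no-effect control and ±100 the full control effect; compound concentration not given in the record; the text of the record puts the active cut at -80%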
Target sequence (Q9GZU1 whole entry, looked up): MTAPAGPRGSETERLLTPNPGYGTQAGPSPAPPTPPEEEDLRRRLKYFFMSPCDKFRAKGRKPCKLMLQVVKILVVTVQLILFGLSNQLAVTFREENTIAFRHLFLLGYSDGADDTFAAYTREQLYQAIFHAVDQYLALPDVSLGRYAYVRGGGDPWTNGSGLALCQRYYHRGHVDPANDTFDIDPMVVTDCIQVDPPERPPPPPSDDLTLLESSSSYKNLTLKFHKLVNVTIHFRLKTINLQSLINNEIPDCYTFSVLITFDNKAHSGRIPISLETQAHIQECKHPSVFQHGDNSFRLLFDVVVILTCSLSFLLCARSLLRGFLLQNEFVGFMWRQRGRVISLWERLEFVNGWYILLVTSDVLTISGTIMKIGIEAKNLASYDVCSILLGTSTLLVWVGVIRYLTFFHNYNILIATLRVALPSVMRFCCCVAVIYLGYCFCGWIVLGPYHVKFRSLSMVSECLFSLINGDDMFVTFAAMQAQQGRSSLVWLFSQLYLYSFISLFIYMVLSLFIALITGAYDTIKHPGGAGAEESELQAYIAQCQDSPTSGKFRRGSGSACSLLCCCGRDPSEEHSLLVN
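TRPML1-DL cells, Tet-induced overnight (~16 h, 37 °C) at 1,500 cells/well, were loaded with Ca8 no-wash dye plus quencher for 45-90 min at room temperature. Compounds were pinned during FDSS kinetic reading; agonist 54-4 at EC80 (4 uM final) then added.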
ClpP mod: qHTS Assay for Activators of ClpP | AID 651965, 2013 | 340,000 tested, 1.9% active | purified B. subtilis ClpP, FRET peptide cleavage, 20 min | Potency, µM (series often up to 57.5 µM), for inactives: top-dose activity change, negative = active | ATP-dependent Clp protease proteolytic subunit (Bacillus subtilis (strain 168)), P80244; active = well fitted falling curve with a large enough effect; inconclusive = small, poorly fitted or top-dose-only effect; inactive = no such curve, though single readings can be large or run the other way; further: potency means the concentration at half of the fitted maximal effect; the source files actives as falling curves though it sought activators and does not explain the sign; nearly all actives have a fitted effect of over 65% in size; many hits overshoot -100%
Target sequence (P80244 whole entry, looked up): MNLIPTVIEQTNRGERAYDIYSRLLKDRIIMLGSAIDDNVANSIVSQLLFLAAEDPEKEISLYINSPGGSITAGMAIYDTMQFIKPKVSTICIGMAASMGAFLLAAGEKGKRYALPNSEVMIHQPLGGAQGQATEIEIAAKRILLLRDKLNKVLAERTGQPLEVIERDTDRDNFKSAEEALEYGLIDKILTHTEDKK
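Purified B. subtilis ClpP, 10 microg/mL final in Tris/HCl pH8 with KCl, BSA, glycerol and Tween-20, cleaved an Abz/nitrotyrosine-quenched decapeptide. Fluorescence (ex 320, em 430) was read at 0 and 20 min at room temperature. Delta was normalized to 5.8 microM ADEP and DMSO/no-enzyme controls.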
TRPV1 potentiator: human TRPV1 potentiation; 320,000 tested, 0.02% active; potentiation, % at 8.33 µM; TRPV1-expressing cells, Fluo-8 calcium influx, capsaicin EC20 potentiation; host cell line not named in the record; control for the full effect not named in the record; active means potentiation above 80%; inconclusive means 30% to 80%; inactive means below 30%; further: 0% is about no effect
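Cells expressing TRPV1 were dye-loaded with Fluo-8 and read kinetically: 10 s baseline, 3 min after compound (agonist portion), then 2 min after EC20 capsaicin (allosteric enhancer portion). Calcium-bound dye fluorescence at 480/520 nm.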
PINK1 modulator: modulators of PINK1 expression; PINK1 immunofluorescence, high-content cytometry, 24 h; Potency, µM (titrated, usually from 76.6 µM), for inactives: at the highest dose activation (PINK1 increase), most hits filed as activators; 410,000 tested, 0.2% active; AID 624263; active = well fitted activation curve with a large enough effect; inconclusive = small, poorly fitted or top-dose-only effect; inactive = flat fitted curve, though single readings scatter; cell line not stated here;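 further: potency means the concentration at half of the fitted maximal effect; % of control where 0% means no effect; nearly all actives have a fitted effect of over 65% in size; a mitochondrial uncoupler was the plate control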
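PINK1 protein, normally rapidly degraded, was detected by immunofluorescence after 24 hour compound treatment of a stable cell line. Titration data (5 concentrations) came from laser-scanning cytometry, with CCCP-treated wells as controls.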
Sfp PPTase inh: blocks B. subtilis Sfp PPTase activity; Q9F4F7; Biochemical Sfp PPTase activity, qHTS; Potency, µM, for the others: max response, negative = inhibition, hits mostly inhibitors; 310,000 tested, 3.5% active; AID 1490; active means well fitted inhibition curve with a large enough effect; inconclusive means small, poorly fitted or top-dose-only effect, or another doubt; inactive means no such curve, though single readings can be large or run the other way;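 further: the enzyme is Sfp with the accession as filed and its product quenches rhodamine fluorescence; potency means the concentration at half of the fitted maximal effect; 0% = enzyme reaction without inhibitor and -100% = no enzyme wells; top concentration of the series not given in the record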
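Buffer: 50 mM Hepes-Na pH 7.6, 10 mM MgCl2, 0.01% Nonidet P-40, 0.01% BSA. Enzyme 15 nM, pre-exposed to compound 15 min; substrates then added and fluorescence change tracked over 30 min.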
TRPML1 ag: activates the human TRPML1 channel | TRPML1-expressing cells, Ca2+ dye fluorescence, FDSS; host cell line not named in the record; reference of the full effect not given here | activation, % (test concentration not listed) | 410,000 tested, 0.12% active | AID 624414; in the data active = activation above about 50%; inconclusive = about 30% to 50%; inactive = below about 30%; further: 0% is about no effect; the text of the record puts the active cut at 80%
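Tet-induced TRPML1-DL cells, 1,500 per well, cultured overnight, were loaded with a no-wash Ca2+ dye for 45–90 min. Calcium fluorescence was recorded on the FDSS for 110 s after compound addition, before the EC80 agonist (4 uM 54-4) was added.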
Menin MLL FP FL: menin-MLL binding inhibition, fluorescein peptide. FP activity change, % at 61.4 µM. Fluorescence polarization, fluorescein-MLL peptide displacement from menin. 290,000 tested, under 10 active; inconclusive = falling polarisation curve, or a change in total fluorescence; inactive = total fluorescence flat and polarisation flat or rising; no compound was filed as active; the % refers to the polarisation; negative = inhibition;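 further: % of control where 0% means no effect; inhibitors lower the polarisation; unlabelled MLL peptide was the positive control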
The depositor's hits bear a star; ? = inconclusive; · = not tested or not shown; & = joins results of further samples; [ ] = dose if it differs, or a comment.

SMILES	TRPML1 blocker	ClpP mod	TRPV1 potentiator	PINK1 modulator	Sfp PPTase inh	TRPML1 ag	Menin MLL FP FL
CC(=O)c1cccc(NC(=O)COC(=O)CCC(=O)c2ccc(F)cc2)c1	7	1.3%	·	-1.0%	·	-0.4	·
CCOC(=O)c1[nH]c2ccc(OC)cc2c1NC(=S)N1CCN(c2ccccn2)CC1	-3	2.5%	-5	-0.1%	15%	-0.5	1.0
CC(C)CNC(=O)NC1C(NC(=O)NCC(C)C)N(C)C(=O)N1C (stereo not drawn)	43	44%	-1	1.6%	-4%	0.2	1.2
O=C(N/C(=C/c1ccc(Br)cc1)C(=O)N1CCCC1=O)c1ccco1	-3	-0.5%	-5	0.4%	10%	0.9	2.6
COc1ccc(COc2cc(-c3cccc(OC)c3)nc3ccc(NC(C)=O)cc23)cc1	-3	3.5%	28	5.4%	?	2.4	-2.0&1.7
CCC(=O)N1CCN(c2cc3c(cc2F)c(=O)c(C(=O)O)cn3CC)CC1	-7	·	·	0.9%	·	-0.6	·
Cc1ccc(C(=O)N/N=C\c2cccc(OC(=O)c3cccc(F)c3)c2)cn1	13	·	6	1.8%	9%	-0.7	1.1
Cc1ccc(NC(=O)Cn2c(=O)n(Cc3ccc4c(c3)OCO4)c(=O)c3oc4ccccc4c32)cc1C	15	?	·	0.6%	·	-0.4	·
CC(C)n1nnnc1SCC(=O)c1c(N)n(C2CC2)c(=O)[nH]c1=O	-3	0.0%	3	2.7%	·	0.0	·
CNC(=O)CC1C(=O)N(Cc2ccccc2)C(=S)N1NC(=O)c1cccc(F)c1 (stereo not drawn)	5	-1.7%	-6	4.1%	-6%	-0.3	3.2
O=C(O)CC/C(=C\c1ccc2c(c1)OCO2)c1nc2ccccc2s1	2	·	-3	-1.3%	10%	0.2	-0.7
CN1CCN(C(=O)CN(c2cccc(Cl)c2)S(=O)(=O)c2ccccc2)CC1	-9	-1.3%	-3	-1.7%	15%	-0.5	0.1
COCCSc1nc(N)c(NC(=O)c2ccc(OC)cc2)c(=O)[nH]1	4	0.4%	-7	1.9%	-1%	0.4	3.3
CCC(=O)Nc1ccccc1C(=O)NC1CCCCC1	32	-3.4%	8	12%[38.3 µM]	7%	0.0	-1.0
O=C1CCN(C2CCN(Cc3nc(Cc4ccccc4F)no3)CC2)CCN1	3	·	3	-1.7%	19%	0.7	-4.0
CCOC(=O)Cc1c(-c2cccc(Br)c2)nc2c3ccccc3ccn12	·	4.8%	·	0.0%	·	-0.3	·
COc1ccccc1OCc1nc(C#N)c(N2CCCC2)o1	5	·	-6	0.0%	2%	0.1	1.4
O=C(NNC(=O)C1CCCCC1)C(=O)NC1CCCCC1	7	0.5%	-7	·	-1%	-0.4	-0.1
CN(C(=O)CSc1nnc2n1CCCCC2)C1(C#N)CCCCC1	17	·	·	-0.4%	·	-0.5	·
CC1C(C(=O)Nc2ccccc2)CCCC1(C)C(=O)O (stereo not drawn)	9	-2.9%	-6	-3.3%	25%	-0.6	3.8
CCCNC(=O)C1(C)CCN(C(=O)c2ccc(C)c(F)c2)C1 (stereo not drawn)	·	-0.2%	·	0.9%	·	-0.1	·
COc1ccc(-c2ccc(-c3noc(C)n3)c(OC)n2)cc1	-8	14µM*	1	16µM*	13%	0.7	-0.2
CN(C)N=Nc1nc[nH]c1C(N)=O	-2	0.9%	-11	0.2%	·	-0.6	·
CCOC(=O)C1=C(O)/C(=C\c2cc(C)n(-c3ccc(F)cc3)c2C)N=C1C	-13	·	-37	3.0%	-17%	-0.7	?
Oc1ccccc1CNc1cccc2cccnc12	11	-1.5%	7	2.1%	7.9µM*	0.2	0.9
CCOc1ccc(N2CC(C(=O)N3CCCCC3)CC2=O)cc1 (stereo not drawn)	-15	·	7	-0.5%	8%	-0.7	-4.4
O=C(Cc1ccccc1[N+](=O)[O-])NCc1ccc(Cl)cc1Cl	-6	-3.7%	-8	5.7%	11%	-0.2	2.9
CCOC(=O)C(NC(=O)Nc1cccc(C)n1)(OCC(F)(F)F)C(F)(F)F (stereo not drawn)	15	-3.0%	6	-1.0%	17%	0.3	1.2
Cc1cc(NC(=O)CSc2ncccc2C(=O)O)no1	3	·	29	2.3%	15%	-0.9	4.3
Fc1cc(F)nc(NCc2ccccc2)n1	-7	2.7%	-3	5.3%	8%	-0.6	1.8
O=C(NCCc1ccccc1)c1cccc(NC(=O)C2CCC2)c1	-11	0.0%	·	-0.6%	·	1.4	·
CSc1nc(-c2ccc(Cl)cc2)nn1S(=O)(=O)c1ccc(Cl)cc1	-5	-4.1%	19	0.4%	-1%	-0.9	1.4
COc1ccc2c(c1OC)C(=O)N1C2SC(C)(C)[C@H]1C(=O)NC1CC1 (stereo partly drawn)	·	-15%	0	1.8%	5%	·	1.5
CC1CCCN(S(=O)(=O)c2ccc3c(c2)c(=O)nc2ccccn23)C1 (stereo not drawn)	15&-19	4.5%	-11	2.1%&0.5%	13%	-0.6&-0.2	-1.8
O=C(CCNC(=O)c1ccccc1)Nc1ccc(S(=O)(=O)Nc2ncccn2)cc1	12	·	·	0.4%	·	-0.7	·
Cc1cccc(C)c1OC(=O)CSc1nnc(-c2ccc3c(c2)OCO3)o1	-2	25µM*	·	0.2%	·	-0.4	·
CN(C)CCCNc1nc2cc(-c3ccccc3CO)sc2c(=O)n1C	·	-12%	·	-0.4%	·	-0.3	·
O=C(Cn1c(=O)n(CC2CCCO2)c(=O)c2ccccc21)Nc1cccc(Cl)c1 (stereo not drawn)	28	-11%	·	1.8%	·	-0.8	·
O=C(CSc1nc2c(c(=O)[nH]1)CN(Cc1ccc(F)cc1)CC2)Nc1cccc(C(F)(F)F)c1	-3	-12%	·	-0.1%	·	-0.6	·
O=C(O)CC12CC3CC(C1)CC(n1cncn1)(C3)C2	22	·	-1	-0.2%	17%	-0.3	-4.4
O=C(O)CCC(=O)Nc1nc(-c2ccccc2)cs1	21	0.0%	?	1.6%	26%	-0.7	0.1
CCCCc1nn2c(=O)cc(COC(=O)c3ccc(NC(=O)C4CCCCC4)cc3)nc2s1	18	-1.3%	·	0.3%	·	0.7	·
COCCCN(C(=O)c1ccco1)c1nc(-c2cc(OC)ccc2OC)cs1	-21	38%	·	11%[38.3 µM]	1%	1.2	2.5
CC(C)C(=O)Nc1cccc(C(=O)OCC(=O)c2ccc(Cl)cc2Cl)c1	4	-0.8%	9	?	13%	0.2	-0.6
O=C(Oc1cccc(-n2cnnn2)c1)c1ccccc1Cl	42	·	-6	0.0%	3%	0.7	-0.2
C=CCOc1ccccc1C1NC(=O)NC(C)=C1C(=O)NCc1ccccc1 (stereo not drawn)	-21	-3.2%	10	5.6%[38.3 µM]	3%	0.9	1.1
COC(=O)c1cc(=O)n(Cc2cccs2)c(=NCc2cccs2)s1	26	0.0%	3	29%[38.3 µM]	14%	-0.8	-1.3
S=c1[nH]nc(-c2ccccc2)n1C1C=CCCC1 (stereo not drawn)	8	-8.8%	11	-1.0%	-18%	0.7	-0.7
O=C(O)CCCc1ccc2ccc3cccc4ccc1c2c34	17	·	0	3.7%	9%	2.8	0.1
CCN(CC)CCCN(Cc1cc2cc3c(cc2[nH]c1=O)OCO3)C(=S)NCCCN(C)C	29	3.7%	6	1.6%	10%	-0.6	-4.7
COCC(=O)OCC(=O)Nc1ccc(Cl)cc1[N+](=O)[O-]	1	·	1	0.9%	-10%	-0.4	2.2
O=C(OC(c1ccccc1)c1nccc2ccccc12)c1ccccc1 (stereo not drawn)	34	-1.8%	·	4.1%	·	4.4	·
C=CCN(C(=O)c1csnn1)C(C(=O)NCc1ccc(F)cc1)c1cccs1 (stereo not drawn)	1	·	-2	0.5%	2%	-0.2	-6.2
O=C(Cn1ncc2c(Cl)cccc21)NCc1cccc(Br)c1	-5	-8.1%	·	14%	·	-0.3	·
CN1C(=O)C2(Nc3ccccc3-c3nc4ccccc4n32)c2ccccc21 (stereo not drawn)	5	-2.9%	-4	1.6%	-9%	1.3	-0.3
Cc1nc(NC(=O)COC(=O)CCC(=O)c2cccs2)c(Cl)cc1Cl	34	-0.2%	5	1.1%	0%	-0.4	9.9
CCOc1ccccc1NC(=O)COC(=O)c1cnc(C)cn1	12	0.0%	10	1.8%	·	-0.5	·
c1ccc(CN(Cc2ccccc2)c2c3c(nc4ncnn24)CCC3)cc1	-11	-6.8%	12	-0.6%	5%	4.2	1.5
CN(C)C(=O)CNc1ccn2nc(-c3cccc(Cl)c3)cc2n1	·	4.6%	·	3.7%	·	-0.2	·
O=C(CCN1CCN(Cc2ccccc2)CC1)Nc1cccc(Cl)c1	17	1.2%	17	-3.7%	23%	-0.1	0.4

Next section
SMILES	TRPML1 blocker	ClpP mod	TRPV1 potentiator	PINK1 modulator	Sfp PPTase inh	TRPML1 ag	Menin MLL FP FL
Cc1cc(C)nc(SCc2ccc(C(=O)N/N=C/c3cccnc3)cc2)n1	·	·	-11	·	12%	·	1.6
CC(C)(C)C1CCC(OC(=O)c2cncc(Br)c2)CC1 (stereo not drawn)	26	0.3%	-2	0.4%	24%	-0.3	2.2
COc1ccccc1CNC(=O)CCS(=O)(=O)c1ccc2c(c1)CCN2C(C)=O	13&-18	-3.0%	-4	-0.5%&1.2%	-9%	-0.2&0.4	2.7
Cc1sc2c(c1C)c(=O)n(-c1ccccc1)c1nnc(C)n21	-6	-2.1%	·	·	3%	1.3	2.6
CCc1ccc(CN(C)C(=O)CCc2nnc(-c3ccc(-c4ccccc4)cc3)o2)nc1	3	3.7%	5	4.8%	-9%	1.3	-0.6
CCOCCc1c(O)nc(SCCOc2ccc(C)c(C)c2)[nH]c1=O	-6	·	1	0.5%	25%	-1.0	1.0
COc1ccc(OC)c(-c2cc(C(=O)Nc3cc(C)on3)no2)c1	-19	?	-7	15%[38.3 µM]	13%	1.7	6.1
